VACV Venus inh: qHTS for Stage-Specific Inhibitors of Vaccinia Orthopoxvirus: Venus Reporter Primary qHTS; 330,000 tested, 0.46% active; Vaccinia virus Venus reporter expression, fluorescence; Potency, µM (top dose mostly 36.5 µM), for the others: top-dose activity change, negative = inhibition, hits mostly inhibitors; active means well fitted inhibition curve with a large enough effect; inconclusive means small, poorly fitted or top-dose-only effect; inactive means no such curve, though single readings can be large or run the other way; tested in A549 cells; further: nearly all actives have a fitted effect of over 30% in size; inactives centre near -10
Vaccinia mCherry: qHTS for Stage-Specific Inhibitors of Vaccinia Orthopoxvirus: mCherry Reporter Primary qHTS | Vaccinia virus mCherry reporter infection, fluorescence; about a quarter of the inactives have no number | Potency, µM (titrated, usually from 36.5 µM), inactives show at the top dose activity change, negative = inhibition, hits mostly inhibitors | 310,000 tested, 0.63% active; active = well fitted inhibition curve with a large enough effect; inconclusive = small, poorly fitted or top-dose-only effect; inactive = no such curve, though single readings can be large or run the other way; tested in A549 cells; further: nearly all actives have a fitted effect of over 35% in size; inactives centre near -10
Numbers without * were called inactive; i = inactive; ? = inconclusive; . = no result given; [ ] = another dose, or the depositor's remark. On the % scale 0 is the no-effect control and ±100 the full control effect; potency means the concentration at half of the fitted maximal effect.

Every second line gives: VACV Venus inh	Vaccinia mCherry
> O=C(CCCCn1c(=O)c2ccccc2n(CC(=O)Nc2ccccc2)c1=O)NCc1ccccc1Cl
  -2%	-15%
> CCc1ccc(Nc2ncc3c(n2)CC(c2ccco2)CC3=O)cc1 (centres undefined)
  -12%	-14%
> COc1ccccc1OCC(=O)NCCS(=O)(=O)N1CCN(c2ccc(F)cc2)CC1
  -8%[7.34 µM]	i[7.34 µM]
> O=[N+]([O-])c1ccc(C(O)C(CO)NC(=S)Nc2ccccc2)cc1 (centres undefined)
  -8%	i
> CC(C)(C)c1ccc(C(=O)N2CCN(Cc3cc(=O)n4nc(-c5ccccc5F)sc4n3)CC2)cc1
  0%	-7%
> Cc1cc(C(=O)NC(=S)Nc2cccc(C(=O)O)c2C)ccc1[N+](=O)[O-]
  -1%	-12%
> CCOC(=O)C(O)(CC(=O)c1ccc(Cl)cc1)C(=O)OCC
  -14%	i
> Cc1ccc(NC(=O)CN2C(=O)N/C(=C/c3ccco3)C2=O)cc1
  -9%	i
> Cc1cc(C)c(NC(=O)CO/N=C2\CCCc3nonc32)c(C)c1
  -7%	-8%
> COc1ccc(N2CCN(C(=O)c3sc4nc(-c5ccc(F)cc5)cn4c3C)CC2)cc1
  -15%	-3%
> Cc1nnc(SCC(=O)N2c3ccccc3C(C)(c3ccc(Cl)cc3)CC2(C)C)s1 (centres undefined)
  ?	?
> CC(C)c1nnc(N2C(=O)c3oc4ccccc4c(=O)c3C2c2cccc(O)c2)s1 (centres undefined)
  -4%	-12%
> CCc1ccc(C2=NN(CCC(=O)NCCc3ccc(OC)c(OC)c3)C(=O)CC2)cc1
  -12%	-11%
> Cc1ccc(S(=O)(=O)Nc2ccccc2F)cc1C(=O)NNC(=O)c1csc(N2CCOCC2)n1
  -12%	-20%
> COc1ccc(Nc2nc(N)c([N+](=O)[O-])c(NCCO)n2)cc1
  -11%	i
> Brc1ccc(/C=N/Nc2ccccc2)cc1
  -16%	-12%
> CC(=O)Nc1ccc(NC(=O)CSc2ncnn2-c2ccccc2)cc1
  -8%	-17%
> COc1ccccc1N1CCN(c2nc(CNC(=O)c3ccc4c(c3)OCO4)nc3ccccc23)CC1
  -14%	i
> Cc1cc(-c2ccccc2)c(C#N)c(SCC(N)=O)n1
  -29%	.
> CCN(C[C@H]1N[C@@](Cc2ccccc2)(C(=O)OC)[C@H]2C(=O)N(C)C(=O)[C@@H]12)C(C)=O
  -11%	-17%
> O=S(=O)(Nc1ccc2c(c1)OCCO2)c1cccc2cccnc12
  -10%	-11%
> CCOC(=O)N1CCN(C(=O)C2CC(=O)N(Cc3ccc(OC)cc3)C2)CC1 (centres undefined)
  2%	5%
> COc1cccc(Nc2nc(C(N)CC(C)C)cs2)n1 (centres undefined)
  ?	?
> CCC(NC(=O)CC[C@H]1O[C@@H](n2cc(C)c(=O)[nH]c2=O)C[C@@H]1O)c1ccccc1 (some centres undefined)
  0%	i
> COc1cc(Cl)c(S(=O)(=O)NCCCn2ccnc2)cc1Cl
  -16%	i
> Cc1cc(-c2nnc(-c3cccc(C(F)(F)F)c3)o2)no1
  -7%	-12%
> CCc1ccc(C(=O)Nc2cc(C)on2)o1
  -5%	-19%
> O=C(Nc1cccc(Cl)c1)c1cc([N+](=O)[O-])ccc1N1CCN(CCO)CC1
  -1%	-10%
> COc1ccc(NC(=O)Oc2ccccc2)cc1Cl
  -21%	-10%
> Cc1nc2ccn(Cc3cccs3)c(=O)c2cc1C(=O)N1CCN(c2ccccc2F)CC1
  -8%	-14%
> CN1CCc2cc3c(c4c2C1Cc1ccccc1-4)OCO3 (centres undefined)
  2%	?
> CCOc1ccc(N2CC(O)Cn3c2nc2c3c(=O)n(CCCc3ccccc3)c(=O)n2C)cc1 (centres undefined)
  -30%	.
> N#Cc1ccc(-c2ccc(OCC(=O)NN=Cc3ccncc3)cc2)cc1
  -15%	-13%
> O=C(Cc1ccccc1)Nc1ccc(NC(=O)c2cccs2)c(Cl)c1
  -6%	i
> CCOC(=O)c1sc2cccc(Cl)c2c1N
  -12%	-16%
> Cc1nnc(NC(=O)CSc2nccn2-c2ccc(F)cc2)s1
  -11%	-11%
> O=C(CCCOc1ccc(Cl)cc1)NCCc1ccccc1
  -13%	-1%
> O=C(c1cc(S(=O)(=O)N2CCCCC2)ccc1Cl)N1CCOCC1
  1%	-14%
> CCCCc1ccc(-n2nc3cc(C)c(NC(=O)Cc4ccccc4)cc3n2)cc1
  -6%[7.34 µM]	-11%[7.34 µM]
> O=c1[nH]c(CSc2nnc(-c3cccnc3)n2C2CCCCC2)nc2ccccc12
  -6%	-8%

Next section (five carried over from the part before).
Every second line gives: VACV Venus inh	Vaccinia mCherry
> Cc1nnc(NC(=O)CSc2nccn2-c2ccc(F)cc2)s1
  -11%	-11%
> O=C(CCCOc1ccc(Cl)cc1)NCCc1ccccc1
  -13%	-1%
> O=C(c1cc(S(=O)(=O)N2CCCCC2)ccc1Cl)N1CCOCC1
  1%	-14%
> CCCCc1ccc(-n2nc3cc(C)c(NC(=O)Cc4ccccc4)cc3n2)cc1
  -6%[7.34 µM]	-11%[7.34 µM]
> O=c1[nH]c(CSc2nnc(-c3cccnc3)n2C2CCCCC2)nc2ccccc12
  -6%	-8%
> Cc1ccc(C)c2c(/C=C/c3ccc(N(C)C)cc3)ccnc12
  3%	20%
> COc1ccc(-c2cn3c(C)c(C(=O)N4CCN(c5ccccc5)CC4)sc3n2)cc1
  -2%	34%[activator]
> COc1cccc(NC(=S)N(CCc2c(C)[nH]c3ccccc23)Cc2ccco2)c1
  ?	?
> COC(=O)c1cc(Br)c(=O)n(Cc2ccc(C(=O)O)cc2)c1
  -16%	.
> Cc1ccc(Nc2nnc(SC(C)C(=O)Nc3c(C)n(C)n(-c4ccccc4)c3=O)s2)cc1 (centres undefined)
  -27%	-22%
> CCOc1ccc(CCNc2nc3ccccc3n3c(C)nnc23)cc1OCC
  -8%	-11%
> COc1ccccc1CN(C)CC(=O)Nc1ccccc1-c1ccccc1
  -27%	?
> CC(C)CNC(=O)COc1ccccc1[N+](=O)[O-]
  -19%	-14%
> Oc1cccc(/C=N/NC(=S)Nc2cccnc2)c1O
  ?	?
> NNC(=O)CNC(=O)CNS(=O)(=O)c1ccccc1
  -18%	i
> Cc1ccc(S(=O)(=O)N2CCN(Cc3cccc(F)c3)CC2)cc1
  3%	i
> CCOc1ccc(NC(=O)C2CC(=O)N(c3ccc4c(c3)OCCO4)C2)cc1OCC (centres undefined)
  -10%	i
> COc1ccc(-c2[nH]ncc2C(=O)NCc2ccccc2C)cc1
  -14%	-11%
> CC(=O)N1CCc2cc(S(=O)(=O)CCC(=O)Nc3ccc4c(c3)OCCO4)ccc21
  10%	-5%
> COc1ccccc1N(CC(O)COc1ccc(C)cc1)S(=O)(=O)c1ccccc1 (centres undefined)
  9%	-28%
> Cc1onc(-c2ccccc2Cl)c1C(=O)NNC(=O)c1nn(C)cc1Cl
  -15%	i
> COc1ccc(NC(=O)N2CCN(C(=O)C(Cc3ccc(F)cc3)NC(C)=O)CC2)cc1 (centres undefined)
  -13%	i
> CCOc1ccc(NC(=O)C2C(C(=O)O)C3(Cl)C(Cl)=C(Cl)C2(Cl)C3(Cl)Cl)cc1 (centres undefined)
  -9%	i
> Cc1ccc(-n2c(=O)c3c(cnn3C)n(CC(=O)Nc3c(C)cccc3C)c2=O)cc1
  5%	-8%
> COc1ccc(S(=O)(=O)N2CCN(CC(=O)N3c4ccccc4CC3C)CC2)cc1OC (centres undefined)
  -15%	-26%
> CCN(CCCNC(=O)C1CCN(S(=O)(=O)N2CCC3(CC2)OCCO3)CC1)c1ccccc1
  -5%	-2%
> CCN1C(=O)/C(=C/N(C(C)=O)c2ccccc2)N(c2ccccc2)C1=S
  -1%	-13%
> Cc1csc(NC(=O)CSc2nc(=O)n(CCCN(C)C)c3c2CCC3)n1
  -6%	-4%
> Cc1nc2cc(-c3cccc(F)c3)nn2c(C)c1CCC(=O)Nc1ccccc1C(N)=O
  -13%	0%
> O=C(NC(=S)Nc1cc([N+](=O)[O-])ccc1O)c1cccnc1
  -10%	-1%
> NC(=O)COC(=O)c1cccc2c1-c1ccccc1C2=O
  -11%	i
> COc1ccc(C2C3=C(CCCC3=O)N(CC(=O)O)C3=C2C(=O)CCC3)cc1Br
  -1%	i
> Cc1cc(C=O)sc1[B-](F)(F)F
  0%	-6%
> CC(Sc1nnc(N)s1)C(=O)NC1CCCCC1C (centres undefined)
  -8%	-16%
> Cn1cc(/C=C/c2ccnc3ccccc23)c2ccccc21
  72%[activator]	?
> CN1CCN(c2ccc(S(=O)(=O)N3CCCCC3)cc2NC(=O)CSC(C)(C)C)CC1
  -15%	i
> CC(=O)Nc1ccc(S(=O)(=O)Nc2cc(-c3ccccc3)nn2C)cc1
  -4%	-17%
> Cc1cc(N2CCOCC2)nc2ccc(NC(=S)NCCN(C)C)cc12
  -7%	?
> COc1ccc(N2CCN(c3ccc4nnc(CCC(=O)Nc5ccc(C)cc5)n4n3)CC2)cc1
  -17%	?
> N#C/C(=C/c1ccc(N2CCOCC2)o1)C(=O)Nc1ccccc1
  2%	-20%
> Cc1cc2n(n1)CCC(=O)N2Cc1ccc(C(=O)Nc2ccc(F)cc2F)cc1
  -6%	-18%
> COc1ccccc1N1CCN(Cc2cc(=O)n3ccsc3n2)CC1
  -8%	.
> COc1cc(/C=C/c2ccc3ccccc3[n+]2C)cc(OC)c1OC
  25%	31%[activator]
> CCn1cc(C(=O)N2CCOCC2)c(=O)c2cc(S(=O)(=O)N(C)C3CCCCC3)ccc21
  3%	-5%
> COc1ccc2cc3c(N)nn(C(=O)c4ccc(F)cc4Cl)c3nc2c1
  -20%	-28%
> Cc1nn(-c2ccccc2)c(C)c1NC(=O)COC(=O)CC(C)c1ccccc1 (centres undefined)
  -9%	i
> C=CCc1ccccc1OCCSc1nc(-c2cccs2)nc2cc(=O)[nH]n12
  -8%	-5%
> Cc1cc(Cl)ccc1Oc1ncnc2oc(-c3ccccc3)cc12
  -20%	.
> COc1ccc(CN=C2NC(=O)CC(C(=O)Nc3cc(C)cc(C)c3)S2)cc1 (centres undefined)
  -13%	i
> COc1ccc(OC)c(CN2CCN(C(=O)[C@@H](NC(=O)c3cccc(C)c3)C(C)C)CC2)c1
  -16%	-22%
> CC(C)c1nc(SCC(=O)NCc2ccccc2)n[nH]1
  -14%	.
> Cc1cc(OCCN2CCCCC2)nc2ccccc12
  -15%	.
> COc1ccc(/C=N/NC(=O)c2cccc(Br)c2)cc1CSc1ccccn1
  -23%	-15%
> COc1ccc(C(=O)OCC(=O)Nc2nnc(-c3ccccc3)o2)cc1
  -19%	-13%
> CC(=O)NC(CC(=O)O)c1ccc(F)cc1 (centres undefined)
  1%	-5%

Other records follow.
Every second line gives: VACV Venus inh	Vaccinia mCherry
> CCc1c(-c2ccc(F)cc2)ncn1Cc1cccc(-c2ccccc2)c1
  -21%	i
> Cc1ccc(NC(=O)CCCN2C(=O)COc3ccc(C)cc32)c(C)c1
  -15%	-16%
> CCOP(=O)(OCC)c1ccccc1OCP(C)(=O)COc1ccccc1P(=O)(OCC)OCC
  -2%	i
> O=C(Nc1nc2ccsc2c(=O)s1)c1ccc(F)cc1
  -24%	-10%
> Cc1ccc(Nc2cc(-c3ccccc3)nc3ncnn23)cc1
  -14%	-26%
> CCOC(=O)c1ccc(NC(=O)c2cc3c(C)nn(-c4ccccc4Cl)c3s2)s1
  -2%	-11%
> CC(=O)Nc1ccc(S(=O)(=O)Nc2nccc(C3Cc4ccccc4C(=O)O3)n2)cc1 (centres undefined)
  -13%	-14%
> COc1ccc(C2CC(c3cccs3)=Nc3ccccc3S2)cc1OC (centres undefined)
  -15%	-2%
> C[C@H]1[C@H](OC(=O)CCC(=O)NCc2ccc(C(=O)O)cc2)O[C@@H]2O[C@@]3(C)CC[C@H]4[C@H](C)CC[C@@H]1C24OO3
  0%	-10%
> CC(=O)c1c(C)nc2nc(-c3ccccc3)nn2c1C
  1%	-1%
> O=C(N/N=C/c1c(F)cccc1Cl)C(=O)N1CCCCCC1
  -6%	-15%
> CCCNC(=O)C1(C)CCCN(C(=O)c2ccc3c(c2)CCO3)C1 (centres undefined)
  3%	-1%
> COC(=O)c1ccc(-n2ccnc2)cc1
  5%	i
> Cc1csc(C(C#N)C(=O)c2ccncc2)n1 (centres undefined)
  0%	i
> O=C(OCc1cc2ccccc2[nH]c1=O)c1ccco1
  -9%	-3%
> CSc1nc(N)nc(SC2C=CCCC2)c1C#N (centres undefined)
  -18%	i
> Cc1ccc2nc(-c3ccccn3)cc(C(=O)NC(C)C(C)(C)C)c2c1 (centres undefined)
  -2%	-13%
> O=[N+]([O-])c1cc(/C=N/N2CCN(Cc3ccccc3)CC2)ccc1Cl
  -13%	?
> CC(C)[C@H](NC(=O)c1ccccc1)C(=O)OCC(=O)Nc1ccc(Cl)cc1C(F)(F)F
  -17%	-29%
> Cc1ccccc1OCCCCn1nnc2sc3c(c2c1=O)CCC(C)C3 (centres undefined)
  -1%	-8%
> Cn1c(N)c(C(=O)COC(=O)c2cc(S(=O)(=O)N3CCOCC3)ccc2F)c(=O)n(C)c1=O
  ?	-26%
